# HSD17B inhib = HSD17B dehydrogenase inhibition; recombinant HSD17B10, NADH fluorescence kinetic; many of its hits are not listed in these tables; Potency, µM (doses to about 57.1 µM), inactives show at the highest dose activity change, negative = inhibition, hits mostly inhibitors; actives 7.6% (n = 75,000); AID 893; active means well fitted inhibition curve with a large enough effect; inconclusive means small, poorly fitted or top-dose-only effect; inactive means no such curve, though single readings can be large or run the other way;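 further: the protocol describes HADH2 (HSD17B10) and not the HSD17B4 of the title; nearly all actives have a fitted effect of over 70% in size; most hits overshoot -100% by far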
#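 20 nM HADH2, pH 9.0 Tris/Tween; cpd preinc 15 min RT; start w/ 1 mM NAD+ + 90 uM b-hydroxybutyryl-CoA; kinetic fluor ex360/em450 q30s x 4 min; delta last-first.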
# Starred values were filed as active, the others as inactive; ? = inconclusive; & = joins results of further samples; [ ] = remark or other dose. On the % scale 0 is the no-effect control and ±100 the full control effect; potency means the concentration at half of the fitted maximal effect.
mol | HSD17B inhib
O=C(Nc1cccc(F)c1)N1CC[C@@]2(CCCN(C(=O)c3ccco3)C2)C1 | 6%
CN(C)c1ccc(-c2cc(Nc3ccc(F)cc3)ncn2)cc1 | 16µM*
O=C(NCc1ccc(N2CCCC2=O)cc1)Nc1ccccc1 | 1%
CN(CC(=O)NCc1ccc2c(c1)OCO2)S(=O)(=O)c1ccc(Br)s1 | -3%
O=C(c1ccc(N2CCOCC2)nc1)N1CCCCC1 | ?
CCn1ncc(C2=NOC(C(=O)NCCc3ccccc3)C2)c1C (stereo not drawn) | 4%
c1ccc(-n2ncc3c(N4CCN(c5ccccn5)CC4)nc(N4CCCCC4)nc32)cc1 | 5%
O=C(O)CCCNC1=NCCC1 | 1%
COc1ccc2[nH]cc(CCNc3nc(-c4ccccc4CN(C)C)nc4ccccc34)c2c1 | 5%
CCCn1c(-c2ccc(F)cc2)nc2c(N3CCN(C)CC3)nc(C)nc21 | 7.9µM*
CC1CCCC(C)N1C(=O)CN1C(=O)C(C)(C)Oc2ccc(C(=O)NC3CCCC3)cc21 (stereo not drawn) | 11%
N#CC1=C(N)Oc2n[nH]c(-c3ccccc3)c2C1c1ccncc1 (stereo not drawn) | -11%
COC(=O)[C@H](N)Cc1ccc(Cl)cc1 | 3%
COCCn1c(C)cc(C(=O)CSc2nc(C)cc(C)c2C#N)c1C | -4%
COc1ccc(NC(=O)C=C(C)C)cc1Cl | 3%

# The list goes on.
mol | HSD17B inhib
CCC(=O)N1CCc2cc(Br)cc(S(=O)(=O)NCCN3CCOCC3)c21 | -6%
COc1ccc(C2SCCN2S(=O)(=O)c2ccc(F)cc2)cc1OC (stereo not drawn) | 1%
O=c1c(-c2cc(F)cc(F)c2)nc2cnc(Oc3ccccc3)nc2n1C1CC1 | -19%
CCOC(=O)CSc1nc(NCc2ccco2)c2ccccc2n1 | -2%
Cc1ccc(-n2c(C)cc(C3N=C(N)Nc4nc5ccccc5n43)c2C)c(C)c1 (stereo not drawn) | -6%
Cc1cccnc1NC(=O)c1c(O)c2ccccc2n(C)c1=O | 17%
COc1cc(OC)c(C2CC(=O)N3CN(c4ccc(C)cc4)CSC3=C2C#N)cc1OC (stereo not drawn) | 25µM*
CCN(CC)CCCCn1c(-c2ccccc2)nc2c(NCc3ccccc3)nc(C)nc21 | 25µM*
c1ccc(-n2ncc3c2ncn2nc(CSc4nc5ccccc5s4)nc32)cc1 | 5%
C=CCNc1ncnc2c1ncn2C1OC(CO)C(O)C1O (stereo not drawn) | 12%
COC(=O)c1nc(-c2ccccc2)oc1N(C)C | 25µM*
CCN(c1ccccc1)S(=O)(=O)c1ccc(F)cc1 | ?
O=C1CC(C(=O)Nc2ccc(O)c(C(=O)O)c2)C(c2ccccc2)O1 (stereo not drawn) | 32µM*
CC(C)(C)SCCNS(=O)(=O)c1ccc(F)cc1 | -10%
COc1ccc(C2N3CC4(C)CN2CC(C)(C3)C4=O)cc1OC (stereo not drawn) | 7%

# Compounds listed so far containing bromine (2):
mol | HSD17B inhib
CN(CC(=O)NCc1ccc2c(c1)OCO2)S(=O)(=O)c1ccc(Br)s1 | -3%
CCC(=O)N1CCc2cc(Br)cc(S(=O)(=O)NCCN3CCOCC3)c21 | -6%

# The results go on.
mol | HSD17B inhib
C[C@H](CN(C)C)C(O)(c1ccccc1)c1ccccc1 | 1%[11.4 µM]
O=C(C1CCCO1)N1CCC(O)(c2ccccc2)CC1 (stereo not drawn) | 6%
O=C(Nc1ccc2c(c1)OCO2)c1cc(C2CC2)on1 | -10%
COc1ccccc1NC(=O)CN1C(=O)CCS(=O)(=O)c2ccccc21 | 0%
Cc1ccc(-c2cc(C(F)F)nc(NCc3cccnc3)n2)cc1 | 25µM*
Cc1sc2ncn3c(C)nnc3c2c1C | 5%
Nn1c(SC/C=C/c2ccccc2)nnc1-c1cccnc1 | 10%
Cc1noc(C(=O)Nc2ccc3c(c2)OCO3)c1Cl | -10%
CCC[C@@H]1C[C@@]1(CCC)C(NS(=O)(=O)c1cccc2cccnc12)c1ccc(Cl)cc1 (stereo partly drawn) | 1%
COc1ccc(-c2noc(CSc3nc(N)c(-c4ccccc4)c(=O)[nH]3)n2)cc1OC | -3%
O=S1(=O)N=C(Nc2ccc(O)c(CN3CCCCC3)c2)c2ccccc21 | -6%
CC1(C)NC(=O)N(CC(O)CN2CCCCC2)C1=O (stereo not drawn) | ?
O=C(CSc1nc(-c2ccco2)cc(C(F)(F)F)n1)NCCCn1ccnc1 | ?
CC(C)Oc1ccc(NC(N)=O)cc1 | -16%
COC(=O)C1=C(C)N(Cc2ccccc2)[C@]23O[C@](C(=O)OC)(C(=O)N2C1c1ccccc1)C(c1ccccc1)C3C(=O)c1ccccc1 (stereo partly drawn) | 0%&-5%[11.4 µM]

# Following part
mol | HSD17B inhib
O=S(=O)(Cc1ccccc1)Nn1cnnc1 | -5%
O=C(O)Cn1c(P(=O)(O)c2ccccc2)nc2ccccc21 | 3%
COC(=O)C1=C(N)Oc2cc(C)n(Cc3ccncc3)c(=O)c2C1c1cccnc1 (stereo not drawn) | 6%
COc1ccc(Cl)cc1NC(=O)Cn1cccc1 | -11%
Nc1cc(Cl)ccc1Oc1ccccc1 | -6%
COC(=O)c1cccc(NC(=O)c2nn(C)c(=O)c3ccccc23)c1 | -4%
CCc1ccc(NC(=O)c2cccnc2)cc1 | 12%
O=S(=O)(/N=C/N1CCOCC1)c1ccc(Cl)cc1 | 9%
CCOC(=O)c1ccc(N2Cc3cc(C)c(C)cc3C2)cc1O | -3%
O=P(O)(O)CCP(=O)(c1ccccc1)c1ccccc1 | -4%
O=C1c2ccccc2C(O)(Cc2ccccc2)N1Cc1ccco1 (stereo not drawn) | 12%
COCC(=O)N1CCC2(CCCN(c3ccncc3)C2)CC1 | 2%
COCCNC(=O)CSCc1nc(-c2ccc(SC)cc2)oc1C | ?
Cc1nc(Nc2ccccc2)c2nc(-c3ccccc3)n(CCN3CCOCC3)c2n1 | ?
Cc1cc(NC(=O)c2ccc3c(c2)C(=O)N(C2CCCCC2)C3=O)no1 | 1%

# Reprinted at random: 6 entries already listed.
mol | HSD17B inhib
COCC(=O)N1CCC2(CCCN(c3ccncc3)C2)CC1 | 2%
O=S(=O)(/N=C/N1CCOCC1)c1ccc(Cl)cc1 | 9%
O=S(=O)(Cc1ccccc1)Nn1cnnc1 | -5%
COc1ccc(Cl)cc1NC(=O)Cn1cccc1 | -11%
O=P(O)(O)CCP(=O)(c1ccccc1)c1ccccc1 | -4%
CCc1ccc(NC(=O)c2cccnc2)cc1 | 12%

# Next part:
mol | HSD17B inhib
Cc1ccccc1NC(=O)C1CCCN(S(=O)(=O)c2cnc[nH]2)C1 (stereo not drawn) | 4%
CCOC(=O)c1ccc2c(c1)nc(SCc1cn3ccsc3n1)n2CC | -6%
CC(=O)c1cc(-c2ccccc2)n(CC(=O)N2CCC(N3CCCCC3)CC2)c1C | -3%
CCCCC[C@H](O)CCCC(=O)O | -5%
O=C(c1cc(C2CC2)on1)N1CCN(C(c2ccccc2)c2ccccc2)CC1 | -22%
CCCCN(CC)S(=O)(=O)c1cccc2cccnc12 | 2%
Cc1cccc(-n2c(N)cc(=O)[nH]c2=S)c1C | -11%
COc1ccc(NC(=O)N2CC[C@@]3(CCCN(C(=O)c4cccn4C)C3)C2)cc1 | -5%
CNc1nc(OC)nc(N2CCOCC2)n1 | -9%
Cn1c(SCC(=O)N2CCCCC2)nnc1-c1ccc(S(=O)(=O)N2CCOCC2)cc1 | 25µM*
O=C(CSc1nc(-c2ccccc2)cc(=O)[nH]1)N1CCOCC1 | -3%
Cc1ccc(S(=O)(=O)CCC(=O)OCC(=O)Nc2cc(C)on2)cc1 | 6%
CCn1nccc1C(=O)Nc1cc(Cl)ccc1Cl | 1%
COC(=O)Nc1c(C(=O)OC)cc(OC)c(OC)c1OC | ?
COc1ccc(C(=O)COC(=O)CN2C(=O)NC(C)(C)C2=O)cc1OC | 9%

# Some of the entries above in a different format:
c1ccc(-n2ncc3c2ncn2nc(CSc4nc5ccccc5s4)nc32)cc1
  HSD17B inhib: 5%
CCC[C@@H]1C[C@@]1(CCC)C(NS(=O)(=O)c1cccc2cccnc12)c1ccc(Cl)cc1 (stereo partly drawn)
  HSD17B inhib: 1%

# Back to the main list; the three compounds before the break are reprinted first.
Structure,HSD17B inhib
CCn1nccc1C(=O)Nc1cc(Cl)ccc1Cl,1%
COC(=O)Nc1c(C(=O)OC)cc(OC)c(OC)c1OC,?
COc1ccc(C(=O)COC(=O)CN2C(=O)NC(C)(C)C2=O)cc1OC,9%
COC(=O)CSc1nc(NC(C)C)nc(N2CCOCC2)n1,7%
CC(C)N(C(=O)CSc1nnc(-c2cc3ccccc3cc2O)n1Cc1ccco1)C(C)C,?
O=C1c2ccccc2N2C(=O)c3ccccc3C2N1Cc1ccco1 (stereo not drawn),-14%
COC(=O)c1ccc(Nc2cc(C)nc3nc(C)nn23)cc1,4%
c1ccc(-c2cnc(-c3ccc(-c4ncc(-c5ccccc5)o4)cc3)o2)cc1,14%[11.4 µM]
CC1CCCCN1C(=O)CSc1nc2ccsc2c(=O)n1Cc1ccccn1 (stereo not drawn),-8%
CCCc1cc2c(cc1NS(=O)(=O)c1ccc(CCNC(C)=O)cc1)OCO2,2%
Cc1cc(O)c2c(-c3ccccc3)cc(=O)oc2c1,3%
O=C(CN1CCC(NC(=O)c2ccc(F)cc2)CC1)NCc1ccccc1F,13%
Cc1cc(C)c(C(=O)CC2(O)C(=O)Nc3ccccc32)cc1C (stereo not drawn),2%
Cc1cc(NCCCN)nc(-c2ccccc2O)n1,?
COc1cccc(C(=O)Nc2c3c(nn2-c2ccccc2C)CS(=O)C3)c1OC (stereo not drawn),8%
CC(C)(C)OC(=O)N1Cc2ccccc2C[C@H]1C(=O)O,2%
COC(=O)CC1C(=O)NCCN1C(=O)NC1CCCCC1 (stereo not drawn),9%
NC1=NC(=O)CC(C(=O)NCCc2ccccc2)S1 (stereo not drawn),1%
O=C(Nc1nccs1)c1cnccn1,-15%
Cn1c(=O)c(-c2ccccc2)nn2c3ccccc3nc12,?
CCn1c(SCC(=O)OCc2ccccc2)nc2c1c(=O)n(C)c(=O)n2C,-6%
COc1ccccc1CNC(=O)CCS(=O)(=O)c1cccs1,5%
Cc1ccc(C(=O)N2CCN(c3ccc(NC(=O)c4cccnc4)cc3)CC2)cc1,-2%
COC(=O)COc1ccc(S(=O)(=O)N2CCN(c3ccccc3F)CC2)cc1C,0%
Cc1ccccc1NC(=O)c1cnn(-c2ccccc2)c1NC(=O)c1ccco1,-2%
Cc1cc(C)nc(SCC(=O)Nc2ncc3c(n2)CCCC3=O)n1,-7%
O=C(c1cnccn1)N1CCC[C@@]2(CCN(c3ccccn3)C2)C1,-7%
CC(=O)O[C@H]1C[C@@]2(C)[C@H](C[C@@H](O)[C@H]3[C@@]4(C)CC[C@@H](O)[C@@H](C)[C@H]4CC[C@@]32C)C1=C(CCC=C(C)C)C(=O)O,1%[25.6 µM]
C=CCOc1ccc(/C(CC)=N/O)c(OC)c1,3%
Cc1ccnc(N)c1,-2%
O=C(Nc1cccc(Cl)c1)OCc1ccccn1,10%
CCOC(=O)C1CCN(c2c(NCCCN(CC)c3ccccc3)c(=O)c2=O)CC1,-3%
O=C1[C@H]2[C@H]3[C@H](O)[C@H](O)C/C(=N/OCc4ccccc4)[C@@H]3CC[C@@H]2C(=O)N1Cc1ccccc1,4%[11.4 µM]

# (cont.)
Structure,HSD17B inhib
CC1(C)C[C@@H]2C(=O)CCC3O[C@@]3(C)CCC21 (stereo partly drawn),3%
Cc1ccccc1C=O,-2%
CCOC(=O)CSc1nnc([C@@H](NC(=O)OC(C)(C)C)C(C)C)o1,13%
CCOC(=O)N1CCN(C(=O)c2ccc3c(c2)ncn3C2CCCC2)CC1,0%
CCC[C@@H]1C[C@@]1(CCC)C(NC(=O)c1cccs1)c1ccc(Cl)cc1 (stereo partly drawn),5%
Cc1noc(/C=C/N(C)C)c1S(=O)(=O)N1CCCC(C(=O)N2CCc3ccccc32)C1 (stereo not drawn),7%
O=C(NCCN1CCN(c2ccccc2F)CC1)C1CC(=O)N(C2CCCC2)C1 (stereo not drawn),11%
CCC(C)(C)n1nnnc1C(c1ccc(OC)c(OC)c1)N1CCN(c2ccccc2)CC1 (stereo not drawn),-3%
COC(=O)[C@@H]1C[C@@]2(O)[C@H](O)[C@H](O)[C@H](O)C[C@H]2N1CC1CC1,16%
O=C(Nc1nccs1)c1cc(S(=O)(=O)N2CCOCC2)ccc1Cl,7%
FC(F)(F)c1ccccc1-c1cncnc1NCc1ccccc1,-20%
Cc1c(Nc2ncccc2C(=O)O)cccc1C(F)(F)F,-2%
Cc1ccc(-c2noc(CCC(N)=O)n2)cc1,-4%
CC(Sc1nc(N2CCOCC2)nc(N2CCOCC2)n1)C(=O)Nc1ccccc1 (stereo not drawn),2%
O=C(Nc1ccc(N2CCCCC2)cc1)c1ccc(F)cc1,-4%
COC(=O)[C@@]1(Cc2ccc(F)cc2)[C@H]2c3cc(C(=O)N(C)C)n(Cc4ccc(C)o4)c3C[C@H]2CN1C(=O)c1ccccc1,?
CCCN(C(=O)Cc1nc(N)n[nH]1)C1(C(=O)Nc2c(C)cccc2C)CCCCC1,11%
CCOC(=O)CCSc1nc2c(c(C(F)(F)F)c1C#N)CCC2,32µM*
CC1(C)Cc2nc3sc4c(SCC(=O)NCc5ccco5)ncnc4c3cc2CO1,-3%
NC(=O)c1c(N)sc2c1CCCC2,?
COc1ccc(C2=[N+]([O-])C(C)(C)N(O)C2(C)C)cc1,-2%
CCC1(c2cccc(Cl)c2)NC(=O)N(Cc2cc(C(=O)OC)c(C)o2)C1=O (stereo not drawn),-12%
CCC(Sc1nc(C)cc(=O)[nH]1)C(=O)Nc1nnc(C)s1 (stereo not drawn),-2%
O=C(NCc1ccc2c(c1)OCO2)c1ccncc1,2%
CC(=O)c1cccc(NC(=O)C2CCN(S(=O)(=O)c3ccc(F)cc3)CC2)c1,5%

# These rows are one share of the data; count on the stated rates, not on these rows.
